# CSC inhib: blocks cancer stem cells; inhibition, % at 7.5 µM; cancer stem cell-like cells viability, luminescence; actives 1.1% (n = 300,000); AID 2717;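 active = mean at 75% or more and at least half the replicates too; inconclusive = mean and replicates disagree; tested in HMLE shEcad cells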;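 also: 0% = median of negative and 100% = median of positive control wells; the first replicate is given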
# MT1-MMP act inh: inhibitors of human MT1-MMP activation. P50281. HT1080 RFP-PRO-GFP cells, GFP/RFP ratio fluorescence, overnight; percent of plate control window, DMSO zero. GFP/RFP ratio change, % at 20 µM. actives 0.061% (n = 360,000);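 active = GFP/RFP ratio change of at least 30% with cell ATP level not reduced by more than half and red fluorescence within 50% of control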; also: strong numbers were not always called active
#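 Assay system: HT1080 cells carrying an RFP-PRO-GFP reporter | Dosing: Single dose of 20 µM compound, 1% DMSO final | Incubation: Cells overnight before dosing, compound overnight, 37 °C, 5% CO2 | Evaluation: GFP/RFP fluorescence ratio | Control set: DMSO and RFP-L50D-GFP cell wells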
# Env fusion inh: HIV envelope-mediated fusion inhibition; HeLa-JRFL Env/CEM21 cell fusion, luciferase; inhibition, % at 12.3 µM; actives 1.1% (n = 360,000); AID 651610;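 active = mean replicate inhibition score of at least 50 and every replicate individually at or above 50; inconclusive = only one of the two criteria met; inactive = mean below 50 and not all replicates reaching 50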;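 also: 0% = plate neutral controls and 100% = maraviroc near 300 nM; one replicate is shown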
# Rce1 inhib: inhibitors of yeast Ras-converting enzyme. yeast membranes, quenched prenylated peptide cleavage fluorescence. calls only. actives 0.27% (n = 290,000). AID 2563;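 active = fall in fluorescence gain of 50% or more versus controls, with final raw signal at or below 3038400; inconclusive = same 50% fall but final raw signal above 3038400; inactive = fall in fluorescence gain under 50%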;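 also: plate controls were neutral control wells for no effect and wells lacking membranes for full effect; tested at 10 µM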
# Target sequence (Q03530 whole entry, looked up): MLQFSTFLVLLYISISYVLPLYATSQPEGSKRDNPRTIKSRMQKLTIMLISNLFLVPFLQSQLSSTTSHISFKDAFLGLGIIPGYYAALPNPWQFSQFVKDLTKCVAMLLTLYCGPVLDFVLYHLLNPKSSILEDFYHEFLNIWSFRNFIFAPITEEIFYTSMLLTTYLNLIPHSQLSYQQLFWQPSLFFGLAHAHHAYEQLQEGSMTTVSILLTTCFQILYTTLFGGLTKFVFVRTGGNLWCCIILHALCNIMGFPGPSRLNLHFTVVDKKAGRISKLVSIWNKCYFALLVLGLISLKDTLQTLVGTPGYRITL
# Yeast UUG start: yeast start codon fidelity modulation; S. cerevisiae UUG-firefly luciferase reporter, luminescence/redox ratio; activity score, % at 18.7 µM; actives 0.13% (n = 350,000); AID 602363;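 active = replicate mean at a twofold rise or more, about +100% in these data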;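 also: firefly luciferase made from a UUG start codon reports start codon fidelity; reporter light over untreated wells divided by growth signal over untreated wells; some hits fall short of that in this replicate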
# eIF4H inh: inhibitors of RNA binding by human eIF4H; Q15056; inhibition, % at 35 µM; eIF4H fluorescence polarization binding assay; actives 0.94% (n = 290,000);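 active = 50% or more with normal probe brightness, or confirmed in later tests; inconclusive = above 50% with abnormal brightness, or retests that disagree; inactive = below 50% or failed in later tests; about a fifth of its hits are not listed in these tables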;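 also: calls also rest on retests at 20 µM and on dose response follow-up; 0% = protein and probe with vehicle and 100% = probe without protein; strong numbers were not always called active; many hits fall short of the cut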
# PABP FP inh: blocks human PABP binding to poly(A) RNA; P11940; fluorescence polarization; inhibition, % at 35 µM; actives 1% (n = 290,000);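 active = 50% or more with normal probe brightness, or confirmed in later tests; inconclusive = above 50% with abnormal brightness, or retests that disagree; inactive = below 50% or failed in later tests; about a fifth of its hits are not listed in these tables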;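 also: calls also rest on retests at 20 µM and on dose response follow-up; controls were probe without protein and protein plus probe with vehicle; some compounds called inactive have numbers as strong as hits; many hits fall short of the cut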
# Target sequence (P11940 whole entry, looked up): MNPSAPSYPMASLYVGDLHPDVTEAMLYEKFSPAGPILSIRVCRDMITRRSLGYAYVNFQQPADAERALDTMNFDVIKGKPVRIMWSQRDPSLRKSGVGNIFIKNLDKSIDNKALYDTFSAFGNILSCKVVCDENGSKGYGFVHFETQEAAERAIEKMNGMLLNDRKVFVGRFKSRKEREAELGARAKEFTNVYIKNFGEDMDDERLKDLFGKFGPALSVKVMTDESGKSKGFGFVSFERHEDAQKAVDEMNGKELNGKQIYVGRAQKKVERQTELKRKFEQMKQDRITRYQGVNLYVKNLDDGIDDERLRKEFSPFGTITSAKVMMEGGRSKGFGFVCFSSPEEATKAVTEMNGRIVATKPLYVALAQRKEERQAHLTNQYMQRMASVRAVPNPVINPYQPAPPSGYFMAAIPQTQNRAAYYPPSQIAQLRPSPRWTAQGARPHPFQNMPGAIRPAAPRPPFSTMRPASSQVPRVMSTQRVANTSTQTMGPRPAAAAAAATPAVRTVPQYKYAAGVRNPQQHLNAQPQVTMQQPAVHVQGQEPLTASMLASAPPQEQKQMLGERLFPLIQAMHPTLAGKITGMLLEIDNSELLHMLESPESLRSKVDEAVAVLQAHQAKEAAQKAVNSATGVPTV
# eIF4H inh retest: further read-out of eIF4H inh, marked with its call; inhibition, %; compound at 20 µM; confirmation average;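 mean of two retest wells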
# PABP FP inh retest: second read-out of PABP FP inh, no call of its own (marks repeat the call); inhibition, %; compound at 20 µM; confirmation repeats;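 mean of two retest wells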
# MT1-MMP act inh RFP: second read-out of MT1-MMP act inh, no call of its own (marks repeat the call); RFP signal change, %; measured here: RFP expression control read;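 0 = vehicle wells; hits needed this value within 50% of zero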
# Numbers without * were called inactive; i = inactive; ? = inconclusive; . = not tested or not shown. This is a subset, so the mix of outcomes need not match the whole.
SMILES,CSC inhib,MT1-MMP act inh,MT1-MMP act inh RFP,Env fusion inh,Rce1 inhib,Yeast UUG start,eIF4H inh,PABP FP inh,others
COc1ccccc1-c1nc(SCC(=O)NCC2CCCO2)c2c(=O)n(C)c(=O)n(C)c2n1 (configuration not stated),-24,.,.,.,i,.,-13,3,
COCCOC(=O)C1=C(C)NC(=O)NC1c1ccc(-c2cc(Cl)ccc2Cl)o1 (configuration not stated),-4,-5,-10,25,i,-12,-7,-12,
COc1ccccc1-c1nn2c(-c3ccco3)nnc2s1,-13,9,8,.,i,-17,59*,18,eIF4H inh retest=65*;PABP FP inh retest=23
CCC1(CC)C(=O)NN(c2ccccc2)C1=O,-3,-2,3,.,i,.,-8,-6,
Nc1ccccc1NC(=O)CCn1c(=S)[nH]c2ccccc2c1=O,-5,-1,-2,-2,i,-16,-20,-2,
COc1cccc(CNC(=O)c2ccc(NC3=NC4CS(=O)(=O)CC4S3)cc2)c1 (configuration not stated),-6,0,8,-2,i,17,-14,-4,
O=C(CNC(=O)N1CC(=O)Nc2ccccc21)Nc1ccc(Br)cc1F,.,0,5,4,.,-12,.,.,
COc1cccc(OC)c1NC(=O)Cc1nn(C)c(=O)c2ccccc12,2,2,5,7,i,-10,9,-2,
Cc1c(CNCc2cccs2)c(C(=O)O)c(C)n1Cc1ccccc1,9,-2,1,.,i,-3,14,-14,
Clc1ccc(C2=CC(c3ccco3)n3ncnc3N2)cc1 (configuration not stated),-23,-215,2,-19,i,-32,?,79*,
CC1=CC(=C2C(=O)c3ccccc3C2=O)C=C(C)N1Cc1ccco1,2,3,-5,.,i,.,9,5,
C=CCNC(=O)/C(C#N)=C/c1cn(-c2ccccc2)nc1-c1cccs1,3,4,2,-16,i,-17,-15,10,
CN(C)S(=O)(=O)c1ccc(Cl)c(C(=O)NNC(=O)c2ccc3c(c2)OCO3)c1,-13,2,-2,.,.,-15,.,.,
CSCCC(NC(=O)c1ccccc1Br)C(=O)NNC(=O)c1csc(N2CCOCC2)n1 (configuration not stated),-7,1,0,-63,i,-24,.,.,
CCC(=O)Nc1ccc(C(=O)c2ccccc2)cc1,.,4,4,.,i,-8,-8,-6,
CC(C)[C@@H](CO)NC(=O)[C@H]1O[C@@H](n2cnc3c(N)ncnc32)[C@H](O)[C@@H]1O,.,0,2,19,.,-18,.,.,
Nc1ccc2c(c1)COC2=O,-8,-2,1,-5,i,.,0,1,
Cc1cccc(C)c1NC(=O)NN(C(=O)c1ccccc1)C(C)(C)C,-5,-3,0,.,i,.,-8,-7,
Cc1cc(/C=C2\Cc3ccccc3C2=O)c(C)n1-c1ccccc1,14,-11,1,-8,i,.,9,1,
Cc1ccc(OCC(=O)Nc2c[nH]c(=O)[nH]c2=O)cc1C,-14,0,1,-47,i,.,0,-18,
COc1cc(Cl)c(C)cc1NC(=O)c1ccccc1NC(=O)CN1CCOCC1,.,-4,-2,32,i,-5,4,0,
CN(CC(=O)Nc1cccc(F)c1)CC(=O)Nc1cccc(S(N)(=O)=O)c1,-1,-1,-2,5,i,.,-6,-8,
CC(C)(C)NC(=O)C(c1ccco1)N(Cc1ccc(F)cc1)C(=O)c1snc(C(N)=O)c1N (configuration not stated),2,3,-2,29,i,-7,-8,10,
C=CCOc1c(Br)cc(/C=N/Nc2ccc(C(=O)O)cc2)cc1OCC,-15,0,-2,-37,i,.,0,10,
COc1ccccc1-c1cc2nc(C)c(CCC(=O)NC(C)CCc3ccco3)c(C)n2n1 (configuration not stated),6,-2,-8,15,i,-1,-6,-3,

# 2 consecutive entries out of the list so far:
SMILES,CSC inhib,MT1-MMP act inh,MT1-MMP act inh RFP,Env fusion inh,Rce1 inhib,Yeast UUG start,eIF4H inh,PABP FP inh,others
C=CCOc1c(Br)cc(/C=N/Nc2ccc(C(=O)O)cc2)cc1OCC,-15,0,-2,-37,i,.,0,10,
COc1ccccc1-c1cc2nc(C)c(CCC(=O)NC(C)CCc3ccco3)c(C)n2n1 (configuration not stated),6,-2,-8,15,i,-1,-6,-3,

# New compounds follow
SMILES,CSC inhib,MT1-MMP act inh,MT1-MMP act inh RFP,Env fusion inh,Rce1 inhib,Yeast UUG start,eIF4H inh,PABP FP inh,others
C/C(CC(=O)Nc1ccc(N(C)C)cc1)=N\NC(=O)c1ccncc1,-7,-2,3,-10,i,.,1,-5,
O=C(O)C1Cc2ccccc2CN1S(=O)(=O)/C=C/c1ccccc1 (configuration not stated),-12,5,7,-7,i,-10,-4,-7,
CCCOc1ccc(-c2nc(C#N)c(N3CCC(C(N)=O)CC3)o2)cc1,2,10,0,.,i,-8,17,-5,
COc1ccc(Nc2nc3ccccc3n2C)cc1,-11,-2,-1,-63,i,0,6,2,
O=C(NCc1ccccc1)C(c1cccnc1)N(C(=O)c1ccccn1)c1ccccc1F (configuration not stated),2,-1,5,-16,i,-20,-3,5,
Cn1c(SCc2ccccc2F)nc2ccccc2c1=O,6,1,-19,13,i,.,.,.,
O=C(Nc1ccc(S(=O)(=O)N2CCOCC2)cc1)c1ccc(S(=O)(=O)N2CCOCC2)cc1,1,4,-6,3,i,-17,3,5,
CCc1c(C(=O)N2CCOCC2)csc1C,-6,-3,2,23,i,-23,-2,4,
Cc1nn(-c2ccccc2Cl)c(Cl)c1/C=N/Nc1nc2ccccc2s1,27,3,0,-6,i,.,-2,-6,
O=C(COc1ccccc1)NCC(c1ccco1)N1CCN(c2ccccc2F)CC1 (configuration not stated),3,-5,-8,.,i,5,.,.,
CN1C(=O)c2ccccc2N(C)C1c1cccs1 (configuration not stated),1,-3,-2,.,i,-15,4,8,
CCc1ccc(NC(=O)c2ccc(-n3cncn3)c([N+](=O)[O-])c2)cc1,-3,4,-4,-43,i,-26,.,.,
Cc1ccnc(NS(=O)(=O)c2ccc(NC(=O)c3cccc(Cl)c3)cc2)n1,.,0,3,14,.,-15,.,.,
O=C(c1cc(COc2ccc3ncccc3c2)on1)N1CCC[C@H]1CO,7,1,-30,59*,i,-6,-1,-13,
Cc1ccc(S(=O)(=O)NCCc2nnc3ccc(N4CCOCC4)nn23)cc1,.,2,-1,-15,.,-17,.,.,
COc1nc(SCC(=O)Nc2ccccc2Cl)nc(N(C)C)n1,-4,-1,0,-2,i,-13,-8,1,
N[C@@H](Cc1ccccc1)c1nnc(SC/C=C/c2ccccc2)o1,-2,2,2,14,i,.,0,1,
CCOc1ccc(S(=O)(=O)N2CCOCC2)cc1NC(=O)CN1C(=O)NC2(CCCC2)C1=O,-10,1,5,.,i,1,.,.,
Cc1cnc(CNC(=O)c2ccc3sc([C@@H]4O[C@H](CO)[C@H](O)[C@H](O)[C@H]4O)nc3c2)cn1,.,5,10,42,.,-10,.,.,
Cc1cc2c(cc1C)C(c1ccccc1F)CC(=O)N2 (configuration not stated),33,-1,-2,-12,i,-12,-9,3,
O=C(O)Cc1sc(-c2ccc(C(=O)O)cc2)nc1-c1ccccc1,16,1,-3,10,.,-10,6,0,
CN(Cc1nc2ccccc2c(=O)[nH]1)C(=O)COc1ccccc1Cc1ccccc1,-4,4,-7,21,.,13,.,.,
Fc1ccc(C(Nc2ccccn2)c2c[nH]c3ccccc23)cc1 (configuration not stated),-6,-4,2,-2,i,.,-2,15,
CCN(C(=O)CSc1nc2ccc(O)cc2c(=O)n1-c1ccc(OC)c(OC)c1)C1CCS(=O)(=O)C1 (configuration not stated),.,0,4,-4,.,-3,.,.,
CCCCOc1ccc(/C(O)=C2/C(=O)C(=O)N(CCCOC)C2c2ccncc2)cc1 (configuration not stated),-6,8,5,.,i,.,-3,10,

# Continued; the last 3 above are carried over.
SMILES,CSC inhib,MT1-MMP act inh,MT1-MMP act inh RFP,Env fusion inh,Rce1 inhib,Yeast UUG start,eIF4H inh,PABP FP inh,others
Fc1ccc(C(Nc2ccccn2)c2c[nH]c3ccccc23)cc1 (configuration not stated),-6,-4,2,-2,i,.,-2,15,
CCN(C(=O)CSc1nc2ccc(O)cc2c(=O)n1-c1ccc(OC)c(OC)c1)C1CCS(=O)(=O)C1 (configuration not stated),.,0,4,-4,.,-3,.,.,
CCCCOc1ccc(/C(O)=C2/C(=O)C(=O)N(CCCOC)C2c2ccncc2)cc1 (configuration not stated),-6,8,5,.,i,.,-3,10,
CCSc1nc(O)cc(=O)n1CC,-3,0,1,13,i,-18,-5,-5,
CCOC(=O)c1ccc(N2C(=O)c3n[nH]c(C)c3C2c2ccc(OC)cc2)cc1 (configuration not stated),-11,3,-5,?,i,-23,-13,5,
Cc1nnc2sc(SCc3ccccc3Cl)nn2c1=O,11,5,6,-3,i,.,-2,-10,
CCOC(=O)N1CCN(Cc2cn[nH]c2-c2cc3ccccc3o2)CC1,-2,0,4,-6,i,-2,-1,-12,
COc1ccc(N2CCN(C(=O)NCc3ccc(OC)c(OC)c3)CC2)cc1,-1,5,-1,-3,i,-6,1,9,
COc1cc(C(C(=O)NC(C)(C)C)N(Cc2ccc3c(c2)OCO3)C(=O)c2cnccn2)cc(OC)c1OC (configuration not stated),-7,0,-4,.,i,-16,-10,-8,
COc1ccc(-c2cc(-c3cc(OC)ccc3O)[nH]n2)cc1,69,8,2,-147,i,0,-7,-9,
O=C(c1ccco1)c1cn[nH]c1-c1ccc(Cl)cc1O,14,2,-4,.,i,-5,-8,4,
Cc1cccc(C(=O)NC(=S)N(C)C2CCCCC2)c1,5,5,6,-12,i,-34,-9,1,
CCc1nc2ccc(C(=O)NCCc3c[nH]c4ccccc34)cn2c1N(C=O)CCC(C)C,.,-3,-7,-71,.,-13,.,.,
CC1C(=O)N(Cc2ccc([N+](=O)[O-])cc2)c2ccccc2N1C(=O)c1c(F)cccc1F (configuration not stated),19,12,-5,78*,i,-4,-1,-1,
O=S(=O)(NC1CCCC1)c1ccc(F)cc1F,.,1,1,-11,.,3,.,.,
COc1ccccc1CNC(=O)/C(C#N)=C/c1ccc(OC)c(OC)c1OC,5,0,-1,-4,i,1,0,-1,

# Ordered by molar mass (lowest first): part of the list above.
SMILES,CSC inhib,MT1-MMP act inh,MT1-MMP act inh RFP,Env fusion inh,Rce1 inhib,Yeast UUG start,eIF4H inh,PABP FP inh,others
O=C(c1ccco1)c1cn[nH]c1-c1ccc(Cl)cc1O,14,2,-4,.,i,-5,-8,4,
CCc1ccc(NC(=O)c2ccc(-n3cncn3)c([N+](=O)[O-])c2)cc1,-3,4,-4,-43,i,-26,.,.,
Cc1ccnc(NS(=O)(=O)c2ccc(NC(=O)c3cccc(Cl)c3)cc2)n1,.,0,3,14,.,-15,.,.,
